HIV Env fusion: blocks HIV Env-driven cell-cell fusion | inhibition, % at 12.3 µM | HeLa-JRFL Env/CEM21 cell fusion, luciferase | AID 651610 | hit rate 1.1% among 360,000;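 active means mean replicate inhibition score of at least 50 and every replicate individually at or above 50; inconclusive means only one of the two criteria met; inactive means mean below 50 and not all replicates reaching 50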;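 further: 0% = plate neutral controls and 100% = maraviroc near 300 nM; one replicate is shown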
CSC inhib: cancer stem cell inhibition | cancer stem cell-like cells viability, luminescence | inhibition, % at 7.5 µM | hit rate 1.1% among 300,000;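 active means mean at 75% or more and at least half the replicates too; inconclusive means mean and replicates disagree; tested in HMLE shEcad cells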;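 further: 0% = median of negative and 100% = median of positive control wells; the first replicate is given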
PABP FP inh: blocks human PABP binding to poly(A) RNA; AID 2014; P11940; fluorescence polarization; hit rate 1% among 290,000; inhibition, % at 35 µM;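 active means 50% or more with normal probe brightness, or confirmed in later tests; inconclusive means above 50% with abnormal brightness, or retests that disagree; inactive means below 50% or failed in later tests; about a fifth of its hits are not listed in these tables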;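 further: calls also rest on retests at 20 µM and on dose response follow-up; controls were probe without protein and protein plus probe with vehicle; some compounds called inactive have numbers as strong as hits; many hits fall short of the cut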
MT1-MMP act inh: MT1-MMP (human) activation inhibition | P50281 | HT1080 RFP-PRO-GFP cells, GFP/RFP ratio fluorescence, overnight; percent of plate control window, DMSO zero | GFP/RFP ratio change, % at 20 µM | hit rate 0.061% among 360,000 | AID 651647;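 active means GFP/RFP ratio change of at least 30% with cell ATP level not reduced by more than half and red fluorescence within 50% of control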; further: strong numbers were not always called active
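Assay system – RFP-PRO-GFP reporter HT1080 cells · Compound dosing – single dose of 20 µM compound, 1% DMSO final · Incubation – overnight compound exposure at 37 °C · Measure – GFP/RFP fluorescence ratio · Benchmarks – DMSO wells and RFP-L50D-GFP cells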
Yeast UUG start: alters start codon recognition fidelity in yeast; S. cerevisiae UUG-firefly luciferase reporter, luminescence/redox ratio; activity score, % at 18.7 µM; hit rate 0.13% among 350,000; AID 602363;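 active means replicate mean at a twofold rise or more, about +100% in these data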;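 further: firefly luciferase made from a UUG start codon reports start codon fidelity; reporter light over untreated wells divided by growth signal over untreated wells; some hits fall short of that in this replicate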
eIF4H FP inh: inhibitors of RNA binding by human eIF4H; Q15056; eIF4H fluorescence polarization binding assay; inhibition, % at 35 µM; hit rate 0.94% among 290,000; AID 2012;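 active means 50% or more with normal probe brightness, or confirmed in later tests; inconclusive means above 50% with abnormal brightness, or retests that disagree; inactive means below 50% or failed in later tests; about a fifth of its hits are not listed in these tables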;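 further: calls also rest on retests at 20 µM and on dose response follow-up; 0% = protein and probe with vehicle and 100% = probe without protein; strong numbers were not always called active; many hits fall short of the cut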
Rce1 inhib: inhibitors of yeast Ras-converting enzyme | Q03530 | yeast membranes, quenched prenylated peptide cleavage fluorescence | calls only | hit rate 0.27% among 290,000 | AID 2563;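 active means fall in fluorescence gain of 50% or more versus controls, with final raw signal at or below 3038400; inconclusive means same 50% fall but final raw signal above 3038400; inactive means fall in fluorescence gain under 50%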;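 further: plate controls were neutral control wells for no effect and wells lacking membranes for full effect; tested at 10 µM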
Target sequence (Q03530 whole entry, looked up): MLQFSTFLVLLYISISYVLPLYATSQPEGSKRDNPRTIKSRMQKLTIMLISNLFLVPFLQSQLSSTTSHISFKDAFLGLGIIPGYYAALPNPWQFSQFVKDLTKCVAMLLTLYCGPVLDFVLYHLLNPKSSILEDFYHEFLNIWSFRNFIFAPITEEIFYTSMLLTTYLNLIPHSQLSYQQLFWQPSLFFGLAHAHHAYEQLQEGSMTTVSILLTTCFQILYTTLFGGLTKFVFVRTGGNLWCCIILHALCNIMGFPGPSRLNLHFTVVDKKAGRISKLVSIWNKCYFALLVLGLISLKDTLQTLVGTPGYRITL
eIF4H FP inh retest: recorded beside eIF4H FP inh, whose call it bears; inhibition, %; compound at 20 µM; confirmation average;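 mean of two retest wells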
PABP FP inh retest: second read-out of PABP FP inh, no call of its own (marks repeat the call); inhibition, %; compound at 20 µM; confirmation repeats;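 mean of two retest wells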
MT1-MMP act inh RFP: second read-out of MT1-MMP act inh, no call of its own (marks repeat the call); RFP signal change, %; measured here: RFP expression control read;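 0 = vehicle wells; hits needed this value within 50% of zero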
Starred values were filed as active, the others as inactive; i = inactive; u = inconclusive; x = not tested or not shown; & = joins results of further samples.

SMILES	HIV Env fusion	CSC inhib	PABP FP inh	MT1-MMP act inh	MT1-MMP act inh RFP	Yeast UUG start	eIF4H FP inh	Rce1 inhib	others
O=C(O)c1ccc(Cl)c(S(=O)(=O)N(Cc2ccccc2)c2ccccc2Cl)c1	-17	44	0	-2	4	-7	-8	i
Oc1ccccc1C=NCCCCCCN=Cc1ccccc1O	-1	-7	13	1	0	-8	1	i
COc1ccc(S(=O)(=O)NCC(=O)N(CC(=O)NCC2CCCO2)c2cc(C)ccc2C)cc1 (stereo unspecified)	x	-7	-4	-1	-6	2	-5	i
COc1ccccc1N1CCN(CC(=O)Nc2sccc2C#N)CC1	14	-4	-3	-1	1	x	22	i
S=c1[nH]nc(-c2ccccn2)n1/N=C/c1cccc(Cl)c1	24	-10	-3	4	8	x	0	i
Cc1cccnc1NC(=O)c1ccc(S(=O)(=O)N2CCC(C)CC2)cc1	-2	-5	x	2	-1	-8	x	i
COc1cc(C(=O)N(C)C2CCCCC2)cc(OC)c1OC	3	x	x	0	0	-4	x	x
CN(CC(=O)NCc1ccco1)S(=O)(=O)c1ccc2c(c1)c(=O)n(C)c(=O)n2C	-2	-8	6	8	5	-19	-7	i
CC(=O)Nc1ccc(NC(=O)c2ccco2)cc1	-22	-4	-3	5	0	-9	-5	i
Cc1ccc(C(C[N+](=O)[O-])c2c(N)n(C)c(=O)n(C)c2=O)cc1 (stereo unspecified)	-3	27	-6	-13	-3	x	-7	i
Cc1c(Br)c(C(F)(F)F)nn1CC(=O)NCCCn1ccnc1	-6	-15	0	3	0	x	-4	i
COc1ccc(CNC(=O)c2sc(=O)n(Cc3ccc(-c4ccccc4)cc3)c2C)cc1OC	u	x	x	-4	-29	-10	x	x
COc1cccc(CNCCSc2nnnn2C)c1	-1	3	7	-1	3	-26	-3	i
Cc1ccc(C(=O)NCCc2ccccc2)cc1	x	-11	-7	0	-4	-75	-4	i
O=C1CCC/C(=N\NC(=O)c2ccc(CSc3cccc4cccnc34)cc2)C1	-9	11	8	-2	-1	x	12	i
COc1ccccc1/C=C(/C(=O)OCC(=O)Nc1cc(C)ccc1C)c1ccccc1	18	21	8	1	1	-17	2	i
C=CCc1ccccc1OCCOc1ccc([N+](=O)[O-])cc1/C=N/NC(N)=O	28	5	-10	2	0	x	-9	i
COc1ccc(N2CC(C)Cn3c2nc2c3c(=O)n(Cc3ccc(F)cc3)c(=O)n2C)c(OC)c1 (stereo unspecified)	-34	-15	4	3	-7	-18	-4	i
Cc1ccc(NC(=O)CSc2nc(CSc3ccc(C)cc3)cc(=O)[nH]2)cc1	9	18	-2	-4	-3	x	2	i
O=C(N/N=C/c1cccnc1)C12CC3CC(CC(C3)C1)C2	0	-3	3	-5	-3	x	4	x
NC(=O)NC(CC(=O)NCc1ccc2c(c1)OCO2)c1ccccc1Cl (stereo unspecified)	2	-8	2	-4	1	-13	1	i
CC(C)CN(CC(C)C)C(=S)NC1CCCCC1	x	-8	12	-5	-2	x	-8	i
C=C[C@]1(C)C[C@@H](OC(=O)CSCCN(CC)CC)[C@]2(C)C(C)CC[C@]3(CCC(=O)[C@H]32)[C@@H](C)[C@@H]1O (stereo partly specified)	-58&-83	-3&5	x	-5&-2	-2&-4	-22&-3	x	i
CN(C)S(=O)(=O)c1ccc(C(=O)NN2C(=O)NC3(CCCCC3)C2=O)cc1	9	x	x	2	5	-11	x	x
O=C(CCn1c(=O)oc2ccc(Cl)cc21)NCCCN1CCOCC1	-1	7	0	-2	3	-22	-9	i
Cc1ccc(CSc2nc3ncccc3[nH]2)cc1	x	7	1	-1	0	-32	-5	i
COc1ccc(C(=O)NNC(=O)CSc2ccccc2)cc1	-10	11	2	1	5	x	-4	i
Cc1cc(Br)cc2c(C(=O)NCC3CCCO3)cc(-c3cccs3)nc12 (stereo unspecified)	x	20	7	-4	-10	31	-1	i
Cc1ccc(NC(=S)NC(=O)c2ccccc2)cc1NC(=S)NC(=O)c1ccccc1	-12	0	8	5	1	-21	9	i
COc1ccc(OCC(=O)Nc2nnc(-c3ccco3)s2)cc1	-1	-7	7	6	3	x	90	i	eIF4H FP inh retest=21;PABP FP inh retest=23
Cc1cc(C)c2c(N)c(C(=O)N/N=C/c3cccs3)sc2n1	-133	2	u	-13	0	-19	u	i
CCN(CC)S(=O)(=O)c1cc(NC(=O)Cc2n[nH]c(=O)c3ccccc23)ccc1C	0	-8	-9	0	-20	1	-3	i
CC(O)C(NS(=O)(=O)c1ccc(Cl)cc1)C(=O)OCC(=O)N1CCN(c2ccccc2)CC1 (stereo unspecified)	-23	3	17	1	1	x	2	i
Cc1ccc(-c2nc(N)n(C(=O)c3ccco3)n2)cc1	17	-9	2	0	6	-11	-7	i
C/C=C1\NC(=O)[C@H](C)NC(=O)[C@@H](NC(=O)[C@H](Cc2ccc(O)cc2)NC(=O)[C@@H](NC(=O)/C(C)=C/C)C(C)C)[C@@H](C)OC(=O)[C@H](CC(C)C)NC(=O)[C@@H](CCC(=O)O)NC1=O	-15	x	x	1	1	5	x	x
CC(C)(C)OC(=O)CNC(=O)c1[nH]cnc1C(=O)Nc1ccc(CNC(=O)OC(C)(C)C)cc1	0	33	0	-11	-6	1	6	i
Cc1cccc(NC(=O)Nc2cccc(F)c2)n1	x	4	0	-6	-4	-13	6	i
Cc1cccc(NC(=O)NCc2ccc3c(c2)OCO3)c1C	17	3	-6	0	0	x	-1	i
Cc1cc(C)n2ncc(/C(N)=N/OC(=O)Nc3ccc(Cl)cc3)c2n1	-6	37	-6	5	2	-14	2	i
CCCCCCCCCCOC(=O)Cn1c(COc2ccccc2)[n+](C)c2ccccc21	44	103*	26	-21	-23	-19	4	i
CCCCc1nnc(NC(=O)CC(=O)Nc2ccccc2C(=O)O)s1	x	-10	6	3	0	-17	-1	i
CC(C)c1ccc(-c2c(C#N)c(N)nc3c2CCCCC3)cc1	x	-16	35	1	-5	-15	1	i
Cc1cc(-c2cn3ccccc3n2)c(C)n1-c1ccccc1	-37	3	-4	-3	-1	x	u	i
O=C(NC(=S)Nc1ccc2c(c1)OCCO2)c1ccc(F)cc1Cl	-2	3	-9	-1	-3	x	-4	i
CC1(C)CC(=O)C2=C(C1)OC(N)=C(C#N)C21C(=O)N2CCCc3cccc1c32 (stereo unspecified)	u	-8	2	-4	-2	-14	5	i
O=S(=O)(c1ccc(F)cc1)N1CCN(CC(O)COCc2cccs2)CC1 (stereo unspecified)	5	-2	-6	2	4	-10	7	i
CC(C)(C)NC(=O)/C(=C\c1ccccc1F)NC(=O)c1ccc([N+](=O)[O-])cc1	-4	-10	4	2	4	x	3	i
CCCCCOC(=O)C1=C(C)NC(=O)NC1c1ccc2c(c1)OCO2 (stereo unspecified)	28	-11	6	2	-5	-16	2	i
COCCn1cc(C(=O)N2CCN(C)CC2)c2c3ccccc3n(C)c2c1=O	-10	-11	0	4	1	4	-1	i
O=c1c2ccccc2ncn1-c1ccc(Cl)cc1	6&-20	3&0	3&1	1&0	1&2	5	0&1	i
COc1ccc(-n2c(COc3cccc4cccnc34)nnc2SCC(=O)O)cc1	1	x	-6	-1	3	x	-14	i
CN(C)S(=O)(=O)c1cccc(C(=O)NCCCn2ccnc2)c1	-6	x	-10	4	1	-4	-3	i
O=C(Oc1cccc(C(=S)N2CCOCC2)c1)c1cccc([N+](=O)[O-])c1	-9	-1	6	1	4	x	-2	i
COC(=O)c1ccccc1NC(=O)CSc1nc(N)cc(N)n1	9	-16	-2	3	1	-13	-5	i
CCOc1ccccc1OCC(=O)Nc1ccc(S(=O)(=O)Nc2ncccn2)cc1	x	12	24	0	0	x	1	i
O=C(c1ccccn1)N(Cc1ccco1)C1(C(=O)NC2CCCCC2)CCCCC1	-25	-5	7	1	2	x	-2	i
O=C(COC(=O)C1CC(=O)N(Cc2ccco2)C1)Nc1nc(-c2ccc(F)cc2)cs1 (stereo unspecified)	x	-8	x	6	2	-9	x	x
CCOc1cc(/C=N/O)cc(Br)c1OCC	-399	-2	-10	-3	-4	-23	-10	i
O=C(O)C1CCC(=O)N(C2CC2)C1c1ccccc1 (stereo unspecified)	-16	-7	-4	-6	-2	-16	-11	i
CC(=O)c1ccc2noc(-c3cccc(C)c3)c2c1	-7	5	3	-5	-1	-8	28	i
More structures follow.
SMILES	HIV Env fusion	CSC inhib	PABP FP inh	MT1-MMP act inh	MT1-MMP act inh RFP	Yeast UUG start	eIF4H FP inh	Rce1 inhib	others
Cc1cccc(-c2cc(C(=O)Nc3ccncc3)c3ccccc3n2)c1	-189	x	2	1	-4	-20	-5	i
Cc1ccc2[nH]c3nc(SCC#N)nnc3c2c1	-34	-3	1	10	-19	-9	-6	i
Cc1cc(C)cc(-n2nnc(C(=O)NCc3ccc4c(c3)OCO4)c2N)c1	-23	14	-15	-1	-3	-6	-8	i
O=C(CC(=O)NCc1ccccc1)NCc1ccccc1	-7	-5	13	2	4	-22	-13	i
C#CCn1c(=NC(=O)CN2C(=O)CCC2=O)sc2cccc(C)c21	20	1	-2	-4	0	5	-2	i
CNC(=S)N1CCC(NC(=O)C(Cc2ccccc2)NC(C)=O)CC1 (stereo unspecified)	0	-13	0	2	4	x	6	i
C=CCN(C(=O)c1ccc2c(c1)nnn2C)c1ccccc1	4	-16	5	3	7	-8	-4	i
COc1cc(CNn2c(C)n[nH]c2=S)cc(Cl)c1OCc1ccccc1	x	-6	0	-3	-11	-12	-6	i
O=C(NC(CO)(CO)CO)c1coc(=O)c(Br)c1	-70	-2	10	4	6	-17	1	i
O=C(C1=C(O)C(=O)N(CC2CCCO2)C1c1ccc(Cl)cc1)c1ccco1 (stereo unspecified)	5	-7	3	-3	4	-4	-1	i
O=C(Nc1ccccc1)NC1CC2CCC(C1)N2Cc1nnnn1Cc1ccc2c(c1)OCO2 (stereo unspecified)	0	-10	-3	0	-4	-3	-4	i
CCOC(=O)C1CCN(S(=O)(=O)c2ccc(CNC(=O)c3ccccc3)s2)CC1	-1	-18	-1	x	x	-15	2	i
CCc1nc2ccc(C(=O)N(CC)CC(=O)Nc3c(F)cccc3F)cc2nc1CC	i	-25	x	x	x	1	x	x
O=C(NC(=S)Nc1cccc(Cl)c1N1CCCCC1)c1ccco1	x	77*	1	-4	-5	-21	1	i
N/C(=N\OC(=O)c1ccco1)c1ccc(Br)cc1	x	x	-8	2	1	-12	-1	i
Cc1ccc(S(=O)(=O)NC2(C(=O)O)CCCCC2)cc1	-38	-4	-2	-2	-2	-20	-2	i
COc1ccc(CN=Cc2[nH]c3ccc(Br)c(Cl)c3c2O)cc1	-5	-7	4	-57	7	-21	20	i
NC(=Nc1ccc(Br)cc1)c1ccccc1	-9	-16	3	1	2	-9	0	i
O=C(CN1CCN(c2cccc(Cl)c2)CC1)N1CCCC1	-18	-2	1	-1	0	-7	11	i

Looked up by structure from above (three):
SMILES	HIV Env fusion	CSC inhib	PABP FP inh	MT1-MMP act inh	MT1-MMP act inh RFP	Yeast UUG start	eIF4H FP inh	Rce1 inhib	others
Cc1ccc2[nH]c3nc(SCC#N)nnc3c2c1	-34	-3	1	10	-19	-9	-6	i
Cc1cc(C)cc(-n2nnc(C(=O)NCc3ccc4c(c3)OCO4)c2N)c1	-23	14	-15	-1	-3	-6	-8	i
CCOC(=O)C1CCN(S(=O)(=O)c2ccc(CNC(=O)c3ccccc3)s2)CC1	-1	-18	-1	x	x	-15	2	i

Bioassay records: PubChem, several laboratories
